NS1 function inh: qHTS Assay for Inhibitors of Influenza NS1 Protein Function; S. cerevisiae slowed by influenza A NS1, growth recovery by OD600; Potency, µM (titrated, usually from 46.1 µM), inactives show top-dose activity, positive = more growth; 270,000 tested, 0.4% active; active means well fitted rising curve with a large enough effect; inconclusive means small, poorly fitted or top-dose-only effect; inactive means no such curve, though single readings can be large or run the other way; note: nearly all actives have a fitted effect of over 50% in size
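A cell-based growth assay was used: compounds that relieve NS1-induced slow growth of budding yeast raise OD600. Assay medium was yeast nitrogen base with ammonium sulphate and -URA supplement, pH 6.0, with 2% galactose.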
RE007 growth inh: qHTS Assay for Inhibitors of the HIV-1 protein Vpr; 360,000 tested, 0.21% active; S. pombe RE007 Vpr strain, BacTiter-Glo ATP luminescence, 24 h; control for the full effect not named in the record; Potency, µM (highest dose often 92.2 µM), inactives show top-dose activity change, negative = less growth; active = well fitted falling curve with a large enough effect; inconclusive = small, poorly fitted or top-dose-only effect; inactive = no such curve, though single readings can be large or run the other way;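 note: % is set by controls: 0 for no effect and ±100 for the full control effect; nearly all actives have a fitted effect of over 50% in size; the assay follows cell death caused by Vpr and the record does not say whether a fall means rescue or toxicity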
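Fission yeast RE007 carrying one integrated HIV-1 vpr copy, seeded at OD 0.01 in PMG+AL medium with 23 nL pinned compound. Grown 24 h at 30 degrees; viability read by BacTiter-Glo luminescence after 5 min.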
2A StopGo: High Throughput Screening for Foot and Mouth Disease Virus Antivirals. human cells with a luciferase reporter of 2A StopGo recoding; control for the full effect not named in the record. Potency, µM (doses to about 57.9 µM), for inactives: at the highest dose signal change, negative = less light. 410,000 tested, 1.2% active. AID 1159524, 2015; active = well fitted falling curve with a large enough effect; inconclusive = small, poorly fitted or top-dose-only effect; inactive = no such curve, though single readings can be large or run the other way; tested in HEK293T cells; note: % is set by controls: 0 for no effect and ±100 for the full control effect; nearly all actives have a fitted effect of over 45% in size; luciferase light after 4 h
Marburg entry inh: qHTS for inhibitors of binding or entry into cells for Marburg Virus; Marburg virus pseudotyped entry inhibition, cell reporter; control for the full effect not named in the record; about a third of the inactives were read at about 46 µM; AID 540276, 2011; 300,000 tested, 1.8% active; Potency, µM (titrated, usually from 37.8 µM), without a hit: at the top dose activity change, negative = inhibition, actives largely listed as inhibitors; active = well fitted inhibition curve with a large enough effect; inconclusive = small, poorly fitted or top-dose-only effect, or effect the other way; inactive = flat fitted curve, though single readings scatter; tested in HEK293 cells; about a fifth of its hits are not listed in these tables; note: % is set by controls: 0 for no effect and ±100 for the full control effect; luciferase read-out
SARS PLpro yeast: qHTS of Yeast-based Assay for SARS-CoV PLP; S. cerevisiae expressing SARS-CoV PLpro, growth rescue; control for the full effect not named in the record; Potency, µM (titrated, usually from 32.9 µM), inactives show at the top dose activity, positive = growth rescue; 330,000 tested, 0.19% active; AID 485353, 2010; active means well fitted rising curve with a large enough effect; inconclusive means small, poorly fitted or top-dose-only effect; inactive means no such curve, though single readings can be large or run the other way; note: 0% is about no effect; nearly all actives have a fitted effect of over 55% in size; growth read by luminescence after 48 h
Cruzain inh Det: qHTS Assay for Promiscuous and Specific Inhibitors of Cruzain (with detergent). 200,000 tested, 0.43% active. purified cruzain, Z-FR-AMC fluorescence, 0.01% Triton. Cruzipain (Trypanosoma cruzi), P25779. Potency, µM, for the others: max response, negative = inhibition, hits mostly inhibitors;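 note: plate controls were neutral wells for no effect and buffer without enzyme for full effect; nearly all actives have a fitted effect of over 40% in size; top concentration of the series not given in the record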
Target sequence (P25779 123-467 limits assumed): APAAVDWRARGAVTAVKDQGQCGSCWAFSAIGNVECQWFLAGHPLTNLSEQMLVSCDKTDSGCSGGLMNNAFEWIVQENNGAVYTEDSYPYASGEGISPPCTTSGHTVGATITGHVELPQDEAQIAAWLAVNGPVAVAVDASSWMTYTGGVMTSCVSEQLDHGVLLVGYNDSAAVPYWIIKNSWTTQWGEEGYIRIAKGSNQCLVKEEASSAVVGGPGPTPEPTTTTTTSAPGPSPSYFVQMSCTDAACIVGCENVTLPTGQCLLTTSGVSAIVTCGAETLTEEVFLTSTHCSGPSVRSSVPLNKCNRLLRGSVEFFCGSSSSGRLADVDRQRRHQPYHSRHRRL
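Enzyme 1.5 nM, Z-FR-AMC 2 uM, NaOAc 100 mM pH 5.5, DTT 5 mM, Triton X-100 0.01%; 15 min RT compound preincubation; kinetic ex360/em450, 60 s delta.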
Cruzain inh noDet: qHTS Assay for Promiscuous and Specific Inhibitors of Cruzain (without detergent); purified cruzain, Z-FR-AMC fluorescence, no detergent; Potency, µM, inactives show max response, negative = inhibition, hits mostly inhibitors; 200,000 tested, 2.3% active;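 note: plate controls were enzyme without inhibitor for no effect and buffer without enzyme for full effect; nearly all actives have a fitted effect of over 40% in size; top concentration of the series not given in the record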
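Purified cruzain at 1.5 nM, pre-incubated 15 min with compound at room temperature in 100 mM sodium acetate pH 5.5, 5 mM DTT, 0.00005% Triton X-100. Reaction started with 2 uM Z-FR-AMC; AMC fluorescence increase over 60 s gives rate.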
Lassa entry inh: qHTS for Inhibitors of binding or entry into cells for Lassa Virus; Lassa virus pseudotype entry inhibition, cell reporter; control for the full effect not named in the record; Potency, µM (titrated, usually from 37.9 µM), for inactives: at the top dose activity change, negative = inhibition, most hits filed as inhibitors; 300,000 tested, 1.2% active; AID 540256, 2011; active means well fitted inhibition curve with a large enough effect; inconclusive means small, poorly fitted or top-dose-only effect, or effect the other way; inactive means flat fitted curve, though single readings scatter; tested in HEK293 cells; note: % is set by controls: 0 for no effect and ±100 for the full control effect; nearly all actives have a fitted effect of over 50% in size; luciferase read-out
The depositor's hits bear a star; ? = inconclusive; . = no result given; & = joins results of further samples; [ ] = dose if it differs, or a comment. Unless noted, calls come from the whole dose curve; as a rule, active = well fitted curve in the direction sought with a large enough effect; inconclusive = small, poorly fitted or top-dose-only effect, or another doubt; inactive = no such curve, though single readings can be large; an effect the other way counts as inactive or inconclusive. Potency is the fitted concentration of half-maximal effect. Compounds as they come; 4.7% or so of the library scored in one or more.

SMILES	NS1 function inh	RE007 growth inh	2A StopGo	Marburg entry inh	SARS PLpro yeast	Cruzain inh Det	Cruzain inh noDet	Lassa entry inh
Cc1ccc(N(C(=O)C2CCCC2)C2C=CS(=O)(=O)C2)cc1 (stereo not given)	3.0%	13.4%	-18.5%	?	2.2%	3.3%	-26.2%	2.4%
COc1ccccc1-c1nc(SCC(=O)Nc2ccccc2F)n[nH]1	1.1%	1.3%	-0.9%	-14.3%	1.3%	.	.	-11.8%
CCOCCOCN(C#N)c1nc(OC)nc(N(C)C)n1	0.6%	6.3%	5.8%	-3.4%	4.4%	0.5%	-20.1%	1.8%
COc1ccccc1NC(=O)CN1C(=O)C(C)SC(C)C1=O (stereo not given)	-3.9%	1.0%	-17.1%	?	15.0%	-0.9%	-8.4%	?
CCOC(=O)c1c(S(=O)(=O)N2CCCCC2C)c(C)n(C)c1C (stereo not given)	-0.7%	4.5%	17.5%	.	4.1%	.	.	.
Cc1ccc(-c2nc3n(n2)C(c2ccccc2C)C=C(c2ccc(Cl)cc2)N3)cc1 (stereo not given)	.	.	0.0%	?	.	-21.2%	9.3%	?
CC(C)(C)c1ccc(Cn2nnc3c(=O)[nH]c(C4CCCN(C(=O)c5ccco5)C4)nc32)cc1 (stereo not given)	?	9.0%	0.0%	10µM*	-0.5%	.	.	-12.0%
COCC1CCN(C(=O)C2CCC(=O)N(Cc3cccc(F)c3)C2)CC1 (stereo not given)	4.2%	12.2%	-25.3%	-4.2%	?	.	.	1.9%
Cc1ccc(-c2nc3ccccc3c(=O)n2-c2c(C)n(C)n(-c3ccccc3)c2=O)cc1	1.1%	1.2%	0.0%	-5.6%	0.6%	.	.	?
CCc1cc(C(=O)NCc2ccccc2)no1	.	.	32.9%[activator]	?	.	-2.5%	-1.7%	?
COc1ccccc1OCCC(=O)Nc1cccc(S(=O)(=O)N2CCCCC2)c1	3.1%	12.7%	-23.7%	-15.6%	-5.4%	-5.2%	2.9%	-5.9%
COc1ccccc1OCc1cc(C(=O)NCCN2CCCC(O)C2)no1 (stereo not given)	-1.1%	-1.6%	-9.0%	5.9%	3.2%	.	.	15.8%
CC(=O)c1ccc(S(=O)(=O)NCc2nnnn2-c2ccccc2)cc1	-7.6%	4.5%	58.5%[activator]	.	-3.9%	.	.	.
CCOC(=O)C(C(=O)OCC)N(C#N)c1nc(N(C)C)nc(N(C)C)n1	-0.7%	4.8%	-13.2%	-11.9%[46.1 µM]	-0.8%	.	.	-21.4%
Oc1ccc(Br)cc1C=Nc1ccc2c3c(cccc13)CC2	13.4%	?	-8.2%	?	1.8%	-4.0%	?	4.9%
CCn1c(CNc2ccc(Cl)cc2)nnc1SCc1ccccc1	-125.2%	-12.9%	-10.8%	-10.1%	-32.6%	-7.2%	-0.9%	-12.7%
O=C(CN(Cc1ccccc1)S(=O)(=O)c1cccc(C(F)(F)F)c1)NC1CCCCC1	-3.9%	11.2%	-4.6%	-13.4%	11.2%	-4.4%	-2.2%	-15.6%
O=C(CC1C(=O)NCCN1Cc1cccc(Oc2ccccc2)c1)NCCc1cscn1 (stereo not given)	-6.6%	1.2%	-7.9%	.	1.3%	.	.	.
Cc1ccc(NC(=O)c2ccccc2F)c(NC(=O)c2ccccc2F)c1	.	-5.3%	8.1%	?	.	.	.	?
Cc1cc(C)cc(OC(C)C(=O)Nc2ccccc2C(=O)NCc2cccnc2)c1 (stereo not given)	-5.8%	-6.7%	-11.4%	-20.0%[46.1 µM]	-3.4%	.	.	.
Cc1noc(Cn2c(=O)c3cc4c(cc3n(CC(=O)Nc3ccc(C(C)C)cc3)c2=O)OCO4)n1	.	.	-17.2%	.	.	-9.3%	5.2%	7.0%[46.1 µM]
Cc1ccc2cccc(NC(=O)COc3cc(C)c(Cl)c(C)c3)c2n1	.	.	-17.6%	13.9%[46.1 µM]	.	0.5%	-12.3%	-3.0%[46.1 µM]
Cc1ccc(S(=O)(=O)Nc2nsc(N)n2)cc1	-5.5%	6.6%	54.8%[activator]	-0.6%	6.0%	6.3%	-2.4%	12.2%
CCC(C(=O)OCCOCCN(CC)CC)c1ccccc1 (stereo not given)	-0.1%	-23.3%	-10.4%	.	1.3%	.	.	.
COc1ccc(N2CCN(S(=O)(=O)Cc3ccccc3)CC2)cc1	5.5%	8.4%	-2.5%	-2.1%	2.6%	1.6%	?	?
CC(C)CNc1ncnc2c1sc1nc(N3CCOCC3)c3c(c12)CC(C)(C)OC3	0.8%	-14.8%	0.0%	18.2%	-6.0%	-6.1%	?	-8.2%
CCOC(=O)c1sc(-c2ccccc2)cc1NC(=O)Nc1ccccc1	-24.5%	24.1%	-29.1%	?	-44.0%	5.0%	?	3.5%
CCN(CC)c1ccc(NC(=O)CN2CCN(S(=O)(=O)c3cc(Cl)ccc3OC)CC2)cc1	-11.5%	-13.7%	-29.8%	-40.5%&-40.5%	2.5%	-1.5%&-3.3%	22.1%&29.3%	?
CC(=O)Nc1ccc2nc(-c3ccncc3)[nH]c2c1	-4.4%	-0.9%	1.5%	-2.3%	1.7%	-3.7%	-9.5%	-5.8%
O=C(Nc1ccccc1)c1cc2ccc3ccccc3c2s1	-10.1%	-6.7%	41.6%[activator]	?	-4.2%	.	.	10.5%
O=S(=O)(Nc1ccc(S(=O)(=O)N2CCOCC2)cc1)c1ccccc1	-1.3%	23.0%	42.1%[activator]	-5.0%	2.0%	6.6%	8.2%	23.2%
Cc1ccc([N+](=O)[O-])c2c1C(N1CCCCC1)C(C)(C)O2 (stereo not given)	.	-1.6%	-24.2%	-5.3%[46.1 µM]	-0.7%	.	.	0.3%[46.1 µM]
COc1ccc(OCC(=O)NC(=S)Nc2ccc(S(=O)(=O)Nc3cc(C)on3)cc2)cc1	8.6%	5.2%	-17.7%	?	-0.8%	.	.	15.7%
CN(C(=O)COC(=O)c1cnc(Cl)c(Cl)c1)C1CCS(=O)(=O)C1 (stereo not given)	8.9%	4.5%	-21.5%	-8.1%[46.1 µM]	3.0%	.	.	7.4%[46.1 µM]
COc1ccc(-c2[nH]ncc2CNC(C)Cc2ccsc2)c(F)c1 (stereo not given)	-7.7%	-13.7%	-5.6%	.	0.3%	.	.	.
c1ccc(Nc2nc(-c3ccccc3)ns2)cc1	-13.6%	6.5%	2.5%	10µM*	-2.6%	.	.	?
CN1CCN(C(=O)c2cnn(-c3cccc(Cl)c3)c2C2CCN(C(=O)OC(C)(C)C)CC2)CC1	.	.	-22.8%	.	.	-0.1%	-3.5%	?
O=C(NCCCNC(=O)c1ccc(-c2cccc(Cl)c2)o1)c1cnccn1	-0.9%	-14.6%	17.1%	3.3%[46.1 µM]	-0.2%	.	.	.
O=S(=O)(NCC1CCCO1)c1ccc(S(=O)(=O)N2CCc3ccccc3C2)cc1 (stereo not given)	-1.6%	-7.3%	16.4%	14.0%	-0.5%	7.2%	-2.8%	-6.9%
CCOc1ccc(NC(=O)C2CCN(C(=O)N3CCOc4ccccc43)CC2)cc1	-5.1%	-3.1%	?	.	-1.3%	.	.	.
O=C(O)C1Cc2ccccc2CN1S(=O)(=O)c1ccc2ccccc2c1 (stereo not given)	17.7%	-5.9%	16.1%	-5.3%	-5.1%	8.4%	2.4%	-6.6%
Cc1cccc(NC(=O)Cn2c(=O)n(Cc3ccc4c(c3)OCO4)c(=O)c3oc4ccccc4c32)c1C	.	.	-6.2%	.	.	0.1%	5.1%	-2.1%[46.1 µM]
CCCn1c(=O)c2ccccc2n2c(SC(C)C(N)=O)nnc12 (stereo not given)	3.2%	13.2%	-23.9%	-13.2%[46.1 µM]	2.5%	.	.	-3.9%
Clc1ccc(SCc2cn3cccnc3n2)cc1	-50.1%	7.7%	.	29.4%	-1.5%	-1.1%	-0.2%	1.9%
Cc1c(N=C2NC(=O)/C(=C/c3ccc(O)cc3)S2)c(=O)n(-c2ccccc2)n1C	-4.7%	-5.2%	-29.7%	?	-6.3%	-8.2%	-18.6%	?
CCOc1ccc(NC(=O)CSc2nnc(Cc3csc(C)n3)o2)cc1	-10.3%	5.9%	-19.2%	?	6.1%	.	.	4.9%
Cc1cccc(C(=O)OCC(=O)NNC(=O)c2cccs2)c1O	.	4.1%	-2.6%	26.2%	3.8%	.	.	8.5%
COc1ccc(C2C(C(=O)OCC(=O)N3CCCCC3)CCC(=O)N2c2ccc(OC)cc2)cc1 (stereo not given)	-51.0%	1.1%	-5.4%	0.1%&0.1%	6.5%	0.7%	?	?

Results in Cruzain inh noDet and RE007 growth inh, for some of the entries so far:
SMILES,Cruzain inh noDet,RE007 growth inh
c1ccc(Nc2nc(-c3ccccc3)ns2)cc1,.,6.5%
Cc1ccc([N+](=O)[O-])c2c1C(N1CCCCC1)C(C)(C)O2 (stereo not given),.,-1.6%

Other structures follow.
SMILES	NS1 function inh	RE007 growth inh	2A StopGo	Marburg entry inh	SARS PLpro yeast	Cruzain inh Det	Cruzain inh noDet	Lassa entry inh
CCN(CC)S(=O)(=O)c1ccc(Nc2nc3ccccc3n3nnnc23)cc1	?	-16.1%	-10.7%	-2.3%	-0.8%	-1.5%	-17.4%	?
COc1cccc(CN2CCN(C(=O)c3cc(-c4ccccn4)nc4ccc(Cl)cc34)CC2)c1	6.2%	18.9%	-22.4%	1.5%[46.1 µM]	-0.3%	.	.	6.6%
O=C(COC(=O)CNS(=O)(=O)/C=C/c1ccccc1)Nc1cc(S(=O)(=O)N2CCCCC2)ccc1Cl	10.0%	-0.1%	-3.8%	.	0.3%	.	.	.
COc1cc(CCC(=O)OCC(=O)Nc2c(C)cc(C)cc2C)cc(OC)c1OC	-7.5%	4.6%	-16.9%	12.3%	13.9%	2.8%	10.8%	-2.5%

Screening results: PubChem BioAssay, National Center for Advancing Translational Sciences (NCATS)
